Screens from PubChem BioAssay.
NPYLR7 ag – agonists of mosquito NPYLR7 receptor, primary screen, cell-based, Aedes aegypti, calcium fluorescence, mosquito biting behavior; Aedes aegypti neuropeptide Y-like receptor 7 (NPYLR7); activation, % at 10 µM; 270,000 compounds, 0.15% hits; HEK293T NPYLR7/Galpha15, GCaMP6s calcium fluorescence; in the data active = activation above about 40%;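 note: 0% = vehicle and 100% = reference agonist at the receptor; some compounds past the cut are filed as inactive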
NPYLR7 ag max-min – also measured in NPYLR7 ag; calls as there; activation, %; measured here: Max-Min RFU normalised activation; some inactives read as strong as hits;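 span of the calcium signal over five minutes; 0% = vehicle and 100% = native peptide agonist; compound fluorescence can raise it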
Starred values were filed as active, the others as inactive; & = joins results of further samples. Only part of the results is shown; count on the stated rates, not on these rows.

SMILES	NPYLR7 ag	NPYLR7 ag max-min
Cc1ccc(CN(C)CC(=O)N2CCSC2c2ccc(F)cc2)cc1 (stereo not given)	-4	4
CCc1c(C)sc2ncnc(-c3ccc(S(C)(=O)=O)cc3)c12	10	8
O=C1NCCN(Cc2ccc(F)c(F)c2)C1CC(=O)N1CCCC1 (stereo not given)	2	0
CN(C)C1(CNC(=O)c2sccc2-c2ccc(F)cc2)CCCCC1	5	4
O=C(Nc1ccc(SCCCC(=O)N2CCN(c3ccccc3)CC2)nn1)C1CC1	1	0
S=C(NN=Cc1ccc2ncccc2c1)Nc1cccnc1	6	4
O=C(Nc1ccn(Cc2ccncc2)n1)Nc1ccccc1C(F)(F)F	-5	-6
O=C(Nc1ccnn1Cc1ccc(Cl)cc1Cl)C1CCN(S(=O)(=O)c2ccccc2)CC1	8	13
O=C(c1csc(CSc2nnc(-c3cccnc3)n2-c2cccc(Cl)c2)n1)N1CCOCC1	13	10
NC(=O)NC1CCN(C(=O)C(c2ccc(Br)cc2)N2CCCC2)CC1 (stereo not given)	-1	-1
O=C(c1ccncc1)N1CCC(C2CCN(Cc3ccc(Cl)cc3)C2)CC1 (stereo not given)	-4	-6
CCO[C@H]1COC[C@@H]1NC(=O)c1n[nH]c(=O)c2ccccc12	-2	3
Cc1ccc(CS(=O)(=O)CCC(=O)NC(C)C)cc1	1	0
Cc1noc(C)c1C1CCCN1C(=O)c1cnn2ccn(C)c12 (stereo not given)	0	-4
Cc1ccc(C(=O)NCC(=O)N2CCOC(COCc3ccc(F)cc3Cl)C2)cc1 (stereo not given)	1	1
Nc1nc(Nc2ccc(F)cc2)nc(C(F)(F)F)n1	-2	-2
O=S(=O)(N(c1ccc(Br)cc1)C(F)F)C(F)(F)F	6	3
Cc1nc2ccccn2c1CN(C)C(=O)c1ccc2nc(Cc3ccccc3F)oc2c1	10	4
COc1ccc(NC(=O)c2sc(=S)[nH]c2N)cc1	-5	-11
Cc1cc(C)nc(NC(=O)NCCCSc2nncn2C)n1	10	7
CCOC(=O)[C@@H]1[C@H](c2ccccc2)[C@@H](NC(=O)OCCOC)[C@H]2CCCCN21	12	19
CCOCCCN(CC(=O)N(Cc1cccn1Cc1ccccc1)C1CCCCC1)S(=O)(=O)c1cc(Cl)ccc1Cl	15	13
Cc1ccc(-c2nc3c(NCc4cccc(N(C)C)c4)nccc3[nH]2)cc1	-6	-12
CC(=O)N1N=C(c2ccccc2)OC1C(=O)N1C[C@@H](C)N[C@@H](C)C1 (stereo not given in full)	2	35
CCCCNC(=O)Cn1cnc2c(cnn2-c2ccccc2)c1=O	-3	-6

Structural class, the entries above containing a thiophene ring, fused or not
SMILES	NPYLR7 ag	NPYLR7 ag max-min
CCc1c(C)sc2ncnc(-c3ccc(S(C)(=O)=O)cc3)c12	10	8
CN(C)C1(CNC(=O)c2sccc2-c2ccc(F)cc2)CCCCC1	5	4

Two entries from above, reformatted:
| Compound | NPYLR7 ag | NPYLR7 ag max-min |
| --- | --- | --- |
| O=C(Nc1ccn(Cc2ccncc2)n1)Nc1ccccc1C(F)(F)F | -5 | -6 |
| Cc1noc(C)c1C1CCCN1C(=O)c1cnn2ccn(C)c12 (stereo not given) | 0 | -4 |

The listing picks up, repeating the three entries before the break.
SMILES	NPYLR7 ag	NPYLR7 ag max-min
Cc1ccc(-c2nc3c(NCc4cccc(N(C)C)c4)nccc3[nH]2)cc1	-6	-12
CC(=O)N1N=C(c2ccccc2)OC1C(=O)N1C[C@@H](C)N[C@@H](C)C1 (stereo not given in full)	2	35
CCCCNC(=O)Cn1cnc2c(cnn2-c2ccccc2)c1=O	-3	-6
c1nc(Sc2nnc(NC3CC3)s2)c2ccsc2n1	3	1
OC(CNC1CCCCC1)COC12CC3CC(CC(C3)C1)C2 (stereo not given)	3	1
CC(c1nc2cc(Cl)ccc2c(=O)n1C)N(C)C(=O)C(Cl)c1ccccc1 (stereo not given)	-3	5
O=C(CCC1CCCN(C(=O)c2cccc(Cl)c2)C1)NC1CC1 (stereo not given)	3	2
Cc1ccc(Sc2ccc(S(=O)(=O)NC(C)C)cn2)cc1	9	5
Cc1cc(C(=O)N2CCC3(CC2)C(=O)NCCN3C)n[nH]1	24	8
CCOc1ccc(N2C(=O)C3N=NN(Cc4cccc(C)c4)C3C2=O)cc1 (stereo not given)	1	-6
COc1ccc(Cl)cc1NC(=O)CCN1CCOC2CCCCC21 (stereo not given)	-1	0
COc1cc2nc(-c3ccc(C)o3)cc(C(=O)NCc3cc(C(F)(F)F)ccc3F)c2cc1OC	-1	-11
O=C(c1cccc(F)c1)N1CCN(C(C(=O)N2CCc3ccccc3C2)C2CCCC2)CC1 (stereo not given)	-3	-1
C=CCNS(=O)(=O)c1ccc(C(=O)Nc2cc(C)nc3ccc(C)cc23)cc1	-5	-3
CC1(C(=O)Nc2ccccc2)CCN1C(=O)c1ccco1 (stereo not given)	1	2
O=C(Cc1cccc(O)c1)NCCC(O)c1ccccc1 (stereo not given)	3	0
CC(C)c1ccc(C2C3CSCC=C3C(C#N)C(=N)C2(C#N)C#N)cc1 (stereo not given)	5	3
Cn1ccn2ncc(C(=O)NCCc3ccccn3)c12	-2	-3
COc1cc(C=NNC(=O)c2c(C)nc3ccccn23)cc([N+](=O)[O-])c1O	-1	10
O=C(Nc1ncn(CC(=O)N2CCCCCC2)n1)C1CC2CCC1C2 (stereo not given)	11	6
COc1ccc(/C=C2/N=C(SCC(N)=O)N(c3cc(C)cc(C)c3)C2=O)cc1	-2	-4
CCCC(=O)N1CCCC1(C)C(=O)Nc1cc(C)ccc1C (stereo not given)	7	3
Cc1ccc(C(=O)N(Cc2cc(-c3cccs3)on2)C(C)C)cc1	2	0
O=C(Nc1ccc(Nc2cc(-n3ccnc3)ncn2)cc1)C(c1ccccc1)c1ccccc1	5	3
Cc1cccc(NC(=O)Nc2ccc(N3CCCC3)c(C(=O)NCCc3ccccc3)c2)c1C	-6	-1
Cc1ccc(-n2nc(-c3ccccc3)cc2NC(=O)CN(CC(C)C)C(=O)Nc2ccccc2F)cc1	9	2
Cc1cccc(CSc2sc3c(O)cc(=O)[nH]c3c2C(N)=O)c1	-1	-2
COc1ccc(N2CCC(NCc3cccc(C#N)c3)CC2)cc1	18	10

Already shown: 2 of the compounds above.
SMILES	NPYLR7 ag	NPYLR7 ag max-min
Cc1cccc(CSc2sc3c(O)cc(=O)[nH]c3c2C(N)=O)c1	-1	-2
COc1ccc(N2CCC(NCc3cccc(C#N)c3)CC2)cc1	18	10

Additional compounds follow:
SMILES	NPYLR7 ag	NPYLR7 ag max-min
CNC(=O)COC(=O)COc1ccc(C#N)cc1	2	3
CCOC(=O)c1cc(-c2ccc(N3CCN(C(=O)Cc4ccccc4)CC3)cc2)n(-c2ccccc2C)n1	38	32
CCOC(=O)c1[nH]c(C)c(C(=O)N(C)CC2CCN(CCc3ccc(F)cc3)CC2)c1C	9	7
COc1ccc2[nH]c(C(=O)c3ccccc3)cc2c1	5	-10
COc1ccc(Nc2nc(Nc3ccc(OC)c(Cl)c3)c3cnn(C)c3n2)c(OC)c1	3	0
COc1ccc(-n2nnnc2CNC(=O)Cc2cccc(C)c2)cc1	2	-1
CSc1ccccc1C(=O)NCc1c(C)ncc2c1CCN(C(=O)c1cc(C)n(C)n1)C2	12	1
Cc1ccc(S(=O)(=O)N(CCN(C)C)Cc2ccc(C#N)cc2)c(Cl)c1	3	1
C=CCCC(O)CN(CCN1CCOCC1)Cc1cccs1 (stereo not given)	29	29
Cc1cc(C(=O)NC(C)c2ccccc2)nc2cc(-c3ccccc3)nn12 (stereo not given)	16	19
CNc1ccc(Cl)cc1C(=O)NCCn1c(C)cc(C)nc1=O	4	-8
CCCCC1CN(CCNC(=O)c2ccc(N3CCN(C)CC3)cc2)Cc2ccccc2O1 (stereo not given)	12	0
CCOC(=O)C(C#N)c1cccc(F)c1 (stereo not given)	18	10
CCOC(=O)c1sc(NC(=O)COc2ccc(Cl)cc2Cl)c(C(=O)OCC)c1C	19	6
CCN(CCn1cccn1)C(=O)c1ccc(=O)[nH]c1	-2	-2
CCCc1c(C)c(C#N)c2nc3ccccc3n2c1NCCN1CCOCC1	1	3
CCCC(C)c1cc(NC(=O)C2CC3CCC2O3)n[nH]1 (stereo not given)	1	1
Cc1cccnc1[C@H](C)NC(=O)CNS(=O)(=O)c1cccs1	3	2
Cc1cccc2sc(N(CCN3CCOCC3)C(=O)c3cccc(S(C)(=O)=O)c3)nc12	14	8
O=S1(=O)CCC(N(Cc2ccco2)S(=O)(=O)c2ccc3c(c2)CCC3)C1 (stereo not given)	6	2
O=C(Cc1ccccc1)N1CCCC(OCc2ccc(F)c(F)c2)C1 (stereo not given)	-5	-5
Cc1nc2n(n1)C(=O)C(C(c1cccc(Br)c1)N1CC(C)CC(C)C1)S2 (stereo not given)	1	1
Cc1cc(CNC(=O)C2CC(=O)Nc3ccc(F)cc32)c2[nH]c(C)c(C)c2c1 (stereo not given)	3	1
CC1CCN(C(=O)CN2c3ccccc3C(C(N)=O)CC2C)C2CCCCC12 (stereo not given)	-1	20
CC1CN(c2ccc(NC(=O)NCc3ccsc3)cc2)CCO1 (stereo not given)	0	-1
(next part)
SMILES	NPYLR7 ag	NPYLR7 ag max-min
COc1ccc2c(c1)sc(=N)n2CC(=O)N1CCCCCC1	-4	2
CC(C)(NC(=O)c1ccn[nH]1)c1ccc(Br)cc1	2	2
CN(Cc1cc(=O)c(O)co1)C1CCCN(c2ccccc2)C1 (stereo not given)	-25	-26
CCc1nc(C)sc1CNC(=O)[C@H](N)CC(C)C	26	22
O=C(O)C1C2C=CC(O2)C1C(=O)NCc1ccccc1F (stereo not given)	-5	-7
O=C1CCc2cc(NC(=O)C3CC(=O)N(c4ccccc4Br)C3)ccc2N1 (stereo not given)	-2	-4
O=C(NCc1cnn2cccnc12)c1cccc(CC2CCNCC2)c1	-13	-13
Cc1c(C(=O)n2ncc(-c3cccc(Cl)c3)c2N)cnn1C	17	15
COc1cccc(CN2C[C@@H]3C[C@@H](c4ccc(CO)o4)N4CCC[C@@]34C2=O)c1	7	13
O=C(c1cc2c(s1)CCC2)N1CCN(S(=O)(=O)c2ccccc2Cl)CC1	3	10
CSc1cccc(NC(=O)CNC(c2ccc(C)cc2)C(F)(F)F)c1 (stereo not given)	0	0
O=C1/C(=C/c2ccncc2)Oc2cc(OS(=O)(=O)c3ccc(Cl)cc3)ccc21	5	1
CC(=O)N1CCN(c2cc(C)ccc2F)C(=O)C1C (stereo not given)	-8	-2
CC(C)(C)c1ccc2c(c1)CC(CNC(=O)/C=C/c1ccccc1)O2 (stereo not given)	32	36
COC(=O)CC(=O)N1CCN(c2nccc(-c3ccc4c(c3)OCO4)n2)CC1	-5	-7
CCCc1nc(N2CCCN(C(=O)Nc3cccc(C#N)c3)CC2)c2c(C)nn(-c3ccccc3)c2n1	7	10
COc1cccc(CC(=O)Nc2cnc3cnc(-c4ccc5ccccc5c4)cn23)c1	-3	-8
COc1cccc(CC2CN(C/C(C)=C/c3ccco3)CCO2)c1 (stereo not given)	-8	-8
CCCNC(=O)NC(=O)Cn1cnc2c1c(=O)n(C)c(=O)n2C	2	11
O=C(c1ccc2n[nH]nc2c1)N1CCC(c2[nH]ncc2Cc2ccccc2)CC1	-3	-5
Cc1cc(C(=O)CSc2nnc(NC(=O)C3CCC3)s2)ccc1Cl	24	37
CCc1ccc2c(c1)NC(=O)C2(C)Cc1cc(Cl)ccc1OC (stereo not given)	-4	4
Cc1cccc(-c2noc(CN(C)Cc3ccccc3O)n2)c1	5	0
CCn1cc(C#N)c(=O)n(CC2CN(c3ccccc3)C(=O)O2)c1=O (stereo not given)	2	-2
CCCC(C)c1nnc(NC(=O)c2nnc3nc(C)cc(C)n23)s1 (stereo not given)	0	0
Following part:
SMILES	NPYLR7 ag	NPYLR7 ag max-min
C(=Nc1ccc(C23CC4CC(CC(C4)C2)C3)cc1)c1ccncc1	0&2	-2&18
O=C(CSc1ccc(-c2ccc(-n3ccnc3)cc2)nn1)Nc1ccccc1	9	7
FC(F)(F)c1cccc(CN2CCCn3cccc3C2c2cccc(Oc3ccccc3)c2)c1 (stereo not given)	10	9
C=CCN(CC(=O)N1CCc2sccc2C1COc1ccc(C)cc1C)C(=O)Nc1ccc(C)cc1 (stereo not given)	-2	5
CN(C)CC(=O)NCc1cccnc1Oc1ccccc1	7	5
Cc1nc(CN2CCN(Cc3csc(CCC(C)C)n3)CC2)no1	-4	24
Cc1ccc(Nc2nc(=O)[nH]nc2C)cc1C	4	2
Cc1oc2cc(OC(C)C(=O)NCC3CCCO3)ccc2c(=O)c1-c1c(F)cccc1Cl (stereo not given)	1	-2
CCN(CC)c1onc(-c2ccccc2)c1CN(C(=O)Nc1ccc(C)cc1)C1CC1	17	18
CC(C)N(Cc1nccn1C)C(=O)Cc1ccc(O)c(Cl)c1	4	4
Cn1c(Cc2cccs2)nnc1SCC(=O)c1c(N)n(C2CC2)c(=O)[nH]c1=O	3	2
O=c1cc(N2CCN(c3nccc(CCC(F)(F)F)n3)CC2)cn[nH]1	0	-1
C=CCCC(=O)N1C[C@H](C(=O)NC)[C@H]2c3ccccc3N(CCO)C(=O)[C@]21C	24	26
CCc1ccc(C2CC(C)CCN2C(=O)CCCn2cncn2)o1 (stereo not given)	2	2
CC1CCc2c(sc3nc[nH]c(=O)c23)C1 (stereo not given)	-2	-2
O=C(c1cnc2cc3c(cc2c1)OCCCO3)c1cc(F)ccc1O	1	7
